gsp antag: qHTS for Antagonists of gsp, the Etiologic Mutation Responsible for Fibrous Dysplasia/McCune-Albright Syndrome: qHTS; gsp-mutant cells, cAMP HTRF, 30 min; control for the full effect not named in the record; Potency, µM (highest dose often 76.9 µM), for the others: top-dose activity change, negative = inhibition, usual class: inhibitors; hit rate 0.4% among 340,000; active = falling curve of any shape with a large fitted effect; inconclusive = falling curve, mostly with a smaller effect; inactive = flat or rising curve; cell line not stated here;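 note: intracellular cAMP measured with PDE inhibitor Ro 20-1724 present during compound exposure; potency is the fitted concentration of half-maximal effect; % is set by controls: 0 for no effect and ±100 for the full control effect; nearly all actives have a fitted effect of over 65% in size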
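HTRF cAMP read-out (cAMP-d2 plus anti-cAMP antibody-K in lysis buffer, 30 min RT). Before lysis, cells are exposed to compounds with […] for 30 min at 37C in DPBS containing Ca/Mg, BSA and Tween 20.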
Sfp PPTase inh: qHTS Assay for Inhibitors of Bacillus subtilis Sfp phosphopantetheinyl transferase (PPTase); Biochemical Sfp PPTase activity, qHTS; hit rate 3.5% among 310,000; AID 1490, 2009; Potency, µM, for inactives: max response, negative = inhibition, usual class: inhibitors; active = well fitted inhibition curve with a large enough effect; inconclusive = small, poorly fitted or top-dose-only effect, or another doubt; inactive = no such curve, though single readings can be large or run the other way;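 note: the enzyme is Sfp with the accession as filed and its product quenches rhodamine fluorescence; potency is the fitted concentration of half-maximal effect; 0% = enzyme reaction without inhibitor and -100% = no enzyme wells; top concentration of the series not given in the record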
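After 15 min at room temperature with compound, 15 nM Sfp received 5 uM rhodamine-CoA plus 12.5 uM BHQ-2-ybbR (50 mM Hepes pH 7.6, 10 mM MgCl2). Rate came from the fluorescence difference over 30 min, ex 525/em 598 nm.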
ClpP mod: qHTS Assay for Activators of ClpP | Potency, µM (series often up to 57.5 µM), for inactives: top-dose activity change, negative = active | purified B. subtilis ClpP, FRET peptide cleavage, 20 min | ATP-dependent Clp protease proteolytic subunit (Bacillus subtilis (strain 168)), P80244 | hit rate 1.9% among 340,000; active = well fitted falling curve with a large enough effect; inconclusive = small, poorly fitted or top-dose-only effect; inactive = no such curve, though single readings can be large or run the other way; note: potency is the fitted concentration of half-maximal effect; the source files actives as falling curves though it sought activators and does not explain the sign; nearly all actives have a fitted effect of over 65% in size; many hits overshoot -100%
Target sequence (P80244 whole entry, looked up): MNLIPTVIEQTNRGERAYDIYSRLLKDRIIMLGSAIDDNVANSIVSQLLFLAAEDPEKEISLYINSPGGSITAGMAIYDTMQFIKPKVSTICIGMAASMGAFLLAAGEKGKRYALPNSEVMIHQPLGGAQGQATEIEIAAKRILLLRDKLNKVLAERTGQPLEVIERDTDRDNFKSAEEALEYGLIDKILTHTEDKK
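ClpP 10 microg/mL final, pH 8 Tris/KCl buffer with BSA, glycerol, Tween-20; compound pinned in; FRET-FV substrate; RT 20 min; Ex320/Em430; ΔFRET vs ADEP 5.8 microM, DMSO, no enzyme.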
Menin-MLL FL inh: qHTS Assay for Inhibitors Targeting the Menin-MLL Interaction in MLL Related Leukemias: Competition With Fluorescein Labeled MLL-derived Peptide | 290,000 tested, under 10 active | FP activity change, % at 61.4 µM | Fluorescence polarization, fluorescein-MLL peptide displacement from menin | AID 1766, 2009; inconclusive = falling polarisation curve, or a change in total fluorescence; inactive = total fluorescence flat and polarisation flat or rising; no compound was filed as active; the % refers to the polarisation; negative = inhibition;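 note: % of control where 0% means no effect; inhibitors lower the polarisation; unlabelled MLL peptide was the positive control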
TRPML1 inh: qHTS for Inhibitors of the Human Mucolipin Transient Receptor Potential 1 (TRPML1). TRPML1-inducible cells, Ca2+ dye fluorescence, FDSS; active compounds read low; inhibition of EC80 agonist-evoked calcium signal. hit rate 0.02% among 390,000. Mucolipin-1 (Homo sapiens), Q9GZU1. activity change, negative = inhibition, % (test concentration not listed); in the data active means activity change below about -50%; inconclusive means about -30% to -50%; inactive means above about -30%;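 note: stimulus is agonist 54-4 at its EC80 concentration; % is set by controls: 0 for no effect and ±100 for the full control effect; compound concentration not given in the record; the text of the record puts the active cut at -80%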
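Calcium fluorescence in TRPML1-DL cells induced overnight with Tet: a 110 s read after compound pin addition, then a 110 s antagonist read after challenge with 54-4 at 4 uM final (EC80).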
TRPV1 potentiator: HTS Assay for Compounds that Act as Potentiators of the Vanilloid Receptor 1. potentiation, % at 8.33 µM. Transient receptor potential cation channel subfamily V member 1 (Homo sapiens), Q8NER1. TRPV1-expressing cells, Fluo-8 calcium influx, capsaicin EC20 potentiation; host cell line not named in the record; control for the full effect not named in the record. hit rate 0.02% among 320,000. AID 540277, 2011; active means potentiation above 80%; inconclusive means 30% to 80%; inactive means below 30%; note: 0% is about no effect
Target sequence (Q8NER1 whole entry, looked up): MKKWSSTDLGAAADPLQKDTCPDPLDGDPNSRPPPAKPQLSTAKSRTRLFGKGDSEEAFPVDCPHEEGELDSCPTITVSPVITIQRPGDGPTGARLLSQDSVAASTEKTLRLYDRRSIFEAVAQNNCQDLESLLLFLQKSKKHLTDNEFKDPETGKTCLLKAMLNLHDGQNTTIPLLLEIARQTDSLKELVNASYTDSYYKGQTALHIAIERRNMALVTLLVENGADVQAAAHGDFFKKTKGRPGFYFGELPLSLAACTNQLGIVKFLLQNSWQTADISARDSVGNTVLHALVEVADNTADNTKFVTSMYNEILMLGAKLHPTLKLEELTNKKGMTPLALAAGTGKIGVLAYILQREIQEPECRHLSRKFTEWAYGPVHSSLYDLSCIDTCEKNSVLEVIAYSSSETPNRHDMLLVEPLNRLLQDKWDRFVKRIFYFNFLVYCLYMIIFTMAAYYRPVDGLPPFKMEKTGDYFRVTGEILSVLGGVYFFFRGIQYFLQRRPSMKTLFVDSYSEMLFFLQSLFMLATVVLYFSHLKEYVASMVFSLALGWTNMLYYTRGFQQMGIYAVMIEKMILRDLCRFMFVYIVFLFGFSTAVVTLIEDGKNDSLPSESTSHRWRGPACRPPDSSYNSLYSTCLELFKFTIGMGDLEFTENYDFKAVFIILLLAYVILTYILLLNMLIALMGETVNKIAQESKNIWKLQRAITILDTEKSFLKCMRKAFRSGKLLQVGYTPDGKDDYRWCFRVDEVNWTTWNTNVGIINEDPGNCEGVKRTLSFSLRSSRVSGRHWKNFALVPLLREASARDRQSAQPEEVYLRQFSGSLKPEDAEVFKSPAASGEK
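TRPV1-expressing cells were cultured overnight at 35.5C and loaded with Fluo-8 calcium dye for 40 to 90 min at room temperature. After a 10 s baseline, compound was added and calcium influx was read kinetically for 3 min (ex 480/em 520 nm).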
gsp ag: qHTS for Agonist of gsp, the Etiologic Mutation Responsible for Fibrous Dysplasia/McCune-Albright Syndrome: qHTS | gsp mutant cells, cAMP HTRF, 30 min; control for the full effect not named in the record | Potency, µM (top dose mostly 76.9 µM), for the others: top-dose activation (cAMP increase), actives largely listed as activators | hit rate 0.13% among 340,000; active = well fitted activation curve with a large enough effect; inconclusive = small, poorly fitted or top-dose-only effect, or another doubt; inactive = no such curve, though single readings can be large or run the other way; cell line not stated here;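 note: phosphodiesterase inhibitor Ro 20-1724 added with compounds to block cAMP breakdown; potency is the fitted concentration of half-maximal effect; nearly all actives have a fitted effect of over 60% in size; about a fifth of the inactives were tested at one dose only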
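Cells in DMEM/10% FBS with G418 were pretreated with compounds in DMSO plus […] (300 uM stock) for 30 min at 37C. cAMP was measured by HTRF (cAMP-d2 plus anti-cAMP antibody-K) after 30 min at room temperature.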
Numbers without * were called inactive; ? = inconclusive; . = not tested or not shown; & = joins results of further samples; [ ] = remark or other dose.

| Compound | gsp antag | Sfp PPTase inh | ClpP mod | Menin-MLL FL inh | TRPML1 inh | TRPV1 potentiator | gsp ag |
| --- | --- | --- | --- | --- | --- | --- | --- |
| Nc1cc(N)nc(SCC(=O)Nc2cccc(S(=O)(=O)N3CCCCC3)c2)n1 | 5.0% | . | -0.7% | . | -9.2 | 0.6 | 5.4% |
| Cc1ccc(NC(=O)c2ncn(CCCN(CCCn3cnc(C(=O)Nc4ccc(C)c(C)c4)n3)Cc3ccc4[nH]ccc4c3)n2)cc1C | 0.8% | . | -10.4% | . | 19.1 | . | . |
| CCOc1ccccc1NC(=O)COC(=O)c1cc(C(=O)OC)cc([N+](=O)[O-])c1 | 9.0% | 9.3% | -1.5% | 4.0 | 1.0 | 4.1 | 4.4%[15.4 µM] |
| Cc1noc(C)c1NC(=O)Nc1ccc2c(c1)C(=O)N([C@H](C)CO)C[C@H](C)[C@@H](CN(C)S(=O)(=O)c1cccs1)O2 | -0.8% | . | -1.4% | . | -17.8 | . | . |
| COc1cc(NC(=O)Cc2ccccc2)ccc1NC(=O)c1ccco1 | -13.3% | 5.6% | -0.4% | -2.9 | 2.4 | -21.8 | 1.3% |
| Cc1snc(S(=O)(=O)/C(C#N)=N/Nc2cccc(C(F)(F)F)c2)c1C#N | 35.5µM* | 1.7% | 0.4% | -3.4 | -1.0 | 3.7 | 7.6% |
| CC1=C(C(=O)OCc2ccccc2)C(c2cccc3ccccc23)NC(=O)N1CCCC(=O)O (stereo not given) | -4.9% | . | -3.3% | . | 45.5 | -9.0 | -10.4% |
| Cc1cc(OCCCN2CCCC2)ccc1Cl | 3.1% | 10.9% | -3.8% | -4.8 | 0.0 | 9.3 | 12.3% |
| Cc1ccc(OCCOC(=O)c2sc(=S)n(C)c2C)cc1 | 5.5% | 4.3% | . | 0.4 | -3.6 | ? | -1.4%[15.4 µM] |
| Nc1nnc(Cc2ccc(Cl)cc2)s1 | -8.3% | 12.5% | 0.4% | -1.0 | -0.1 | -5.4 | 3.2% |
| CC(C)C(=O)Nc1cccc(NC(=O)c2cccc(Br)c2)c1 | -6.3% | 11.9% | . | -3.2 | 3.9 | 0.4 | -31.6%[inhibitor] |
| COc1ccc(-c2cc(C(=O)N3CCN(S(=O)(=O)c4ccc(C)cc4)CC3)[nH]n2)cc1 | -12.1% | 5.8% | -6.8% | -0.9 | -0.9 | -13.4 | 1.3% |
| COc1ccc(C2=CN(Cc3ccccc3)C(c3ccccc3)CC2=O)cc1 (stereo not given) | -29.4% | . | -6.1% | . | 22.6 | . | -6.5% |
| O=C(CCNC(=O)c1ccc([N+](=O)[O-])cc1)NC1CCCCCC1 | ? | . | 2.7% | . | 17.5 | -3.0 | -20.6% |
| CC(C)(C)OC(=O)N1CCC[C@H]1C(=O)N/N=C/c1ccc2ncccc2c1 | 6.0% | -3.5% | -0.1% | 4.0 | -4.1 | -2.5 | -5.6%[15.4 µM] |
| O=c1cc(C=NNc2ccc([N+](=O)[O-])cc2)[nH]c(=O)[nH]1 | 1.6% | . | 1.9% | . | -5.0 | . | -3.9% |
| O=C(c1ccc(Cl)c(S(=O)(=O)N2CCCC2)c1)N1CCN(c2ccccc2F)CC1 | -15.6% | 5.8% | . | 0.2 | -4.7 | -23.9 | -3.9% |
| Cc1cc(=O)n2[nH]c(-c3cccnc3)nc2n1 | . | 2.1% | . | 3.4 | . | -0.3 | . |
| CCCCn1nc(C(=O)N(C)CC(=O)Nc2ccc(F)c(F)c2F)ccc1=O | 2.7% | . | -0.8% | . | 11.7 | . | -23.2% |
| Cc1ccsc1C(=O)OCC(=O)NC1CCS(=O)(=O)C1 (stereo not given) | -1.8% | 8.6% | -2.2% | -2.5 | 5.6 | 1.8 | ? |
| COc1ccc(-c2noc3c2-c2nc(-c4ccccc4Cl)sc2CC3)cc1 | -3.4% | . | 4.5% | . | -5.6 | . | -0.3% |
| Cc1nc(SCC(N)=O)[nH]c(=O)c1CCC(C)C | -2.0% | 18.2% | -0.2% | -4.5 | -4.0 | 8.9 | -30.4% |
| O=C(CCNc1ccc(F)cc1)c1ccco1 | -0.5% | 2.2% | -1.3% | 3.1 | -15.5 | -6.5 | 3.2% |
| O=C(c1cc(-c2ccccn2)nc2c(Cl)cccc12)N1CCN(C(=O)C2CCCO2)CC1 (stereo not given) | -3.3% | 3.9% | -14.8% | 2.5 | -8.5 | -1.1 | 2.3% |
| O=C(Nc1nc2c(s1)CCCC2)c1cccs1 | -23.6% | 3.3% | -3.6% | 3.4 | -24.3 | -17.1 | -21.5% |
| Cc1cccn2c(=O)c3cc(C(=O)NC4CCCCC4)c(=N)n(CCN4CCOCC4)c3nc12 | 4.7% | 16.9% | 3.8% | -1.2 | . | ? | 14.6% |
| O=C(Nc1ccnn1C1CCN(C2CCCC2)CC1)c1ccccc1 | -4.7% | 13.0% | 1.0% | . | 20.6 | -1.4 | -12.4%[15.4 µM] |
| CCc1nc(SCC(=O)Nc2c(C)n(C)n(-c3ccccc3)c2=O)n[nH]1 | 1.7% | 18.0% | 0.6% | 3.2 | 39.6 | -0.8 | 13.4% |
| O=C(COc1ccc(S(=O)(=O)N2CCOCC2)cc1)Nc1ccccc1C(F)(F)F | 9.7% | 11.4% | 0.4% | 5.6 | -7.4 | -4.8 | 5.3% |
| O=C(CSc1nnc(-c2ccncc2)o1)c1ccc2c(c1)OCCO2 | 0.8% | -16.3% | . | -2.5 | 1.4 | -3.0 | 13.5% |
| O=C(Nc1nnc(C2=COCCO2)o1)C1CCCCC1 | 11.8% | -16.7% | . | 3.6 | -0.2 | -20.9 | 13.3%[15.4 µM] |
| CC(=O)c1nnn(-c2nc(N)nc(N(c3ccccc3)c3ccccc3)n2)c1C | -10.5% | -13.3% | 4.1% | 0.7 | -8.1 | 0.8 | -13.9% |
| COc1ccc(-c2cc(=O)c3c(OC)c(OC)c(OC)c(OC)c3o2)cc1OC | -9.3% | 31.0%&4.4%[activator] | -26.7% | 0.1&-0.1&-2.2 | -4.8 | -3.7&6.1 | . |
| O=C(CCN1C(=O)c2ccccc2S1(=O)=O)Nc1ccc(F)c(F)c1F | 3.7% | . | . | . | 40.9 | 24.2 | 0.8%[15.4 µM] |
| CCCCNC(=S)Nc1ccc(C(F)(F)F)cc1 | -11.0% | -1.1% | . | 0.3 | -7.1 | -16.6 | -2.3%[15.4 µM] |
| O=C1/C(=C/c2ccccn2)SC(=S)N1Nc1ncc(C(F)(F)F)cc1Cl | ? | . | . | . | 2.5 | . | -7.0% |
| CCOCCCNC(=O)c1ccc(NC(=O)C2=CSCCO2)cc1 | -1.4% | -5.6% | -3.7% | . | -13.4 | 3.6 | -11.3% |
| CSCc1ccc(C(=O)Nc2cccc(C)c2C)cc1 | -9.3% | -9.2% | -17.1% | 0.4 | 4.7 | -13.5 | -56.5% |
| COC(=O)c1ccccc1NC(=S)N1CCN(c2ccc(OC)cc2)CC1 | -10.1% | 0.2% | -4.1% | 0.0 | -17.2 | -14.8 | 18.4% |
| Cc1ccc(C(c2sc3nc(C)nn3c2O)N2CC(C)OC(C)C2)cc1 (stereo not given) | -6.9% | 15.8% | -1.2% | 1.3 | 60.2 | 6.7 | -22.4% |

One compound at a time, as listed above. Order of screens: gsp antag	Sfp PPTase inh	ClpP mod	Menin-MLL FL inh	TRPML1 inh	TRPV1 potentiator	gsp ag
`O=C(Nc1nc2c(s1)CCCC2)c1cccs1` is entered as -23.6%	3.3%	-3.6%	3.4	-24.3	-17.1	-21.5%
`O=C(CCN1C(=O)c2ccccc2S1(=O)=O)Nc1ccc(F)c(F)c1F` is entered as 3.7%	.	.	.	40.9	24.2	0.8%[15.4 µM]

Next part
| Compound | gsp antag | Sfp PPTase inh | ClpP mod | Menin-MLL FL inh | TRPML1 inh | TRPV1 potentiator | gsp ag |
| --- | --- | --- | --- | --- | --- | --- | --- |
| Cc1ccc(C(=O)CC(c2cccs2)S(=O)(=O)c2ccc(C)cc2)cc1 (stereo not given) | 12.4% | 1.8% | -1.3% | 4.6 | 8.5 | -8.9 | 2.5% |
| O=C(NCCOC(=O)c1ccc([N+](=O)[O-])cc1)c1cccnc1 | 1.9% | 18.7% | . | -3.7 | -9.8 | -0.1 | 17.8µM* |
| COc1ccc(CCNC(=O)COC(=O)c2cncc(Br)c2)cc1OC | 1.6% | . | 0.2% | . | 11.5 | . | -24.5% |
| O=C(NCc1cccc(Br)c1)c1cc(-c2ccccc2)nn1CC1CC(c2cccc([N+](=O)[O-])c2)=NO1 (stereo not given) | -11.0% | . | -1.6% | . | 7.9 | . | -6.3% |
| COc1ccc(Oc2coc3cc(OC(=O)c4cccs4)ccc3c2=O)cc1 | -2.3% | 0.1% | -2.4% | 2.7 | 23.9 | -9.1 | -6.9% |
| C=CCn1c(O)c(N=NC(=O)CNC(=O)Cc2ccccc2)c2ccccc21 | -11.3% | 4.5% | 0.8% | 2.1 | 4.3 | ? | -34.9%[inhibitor] |
| O=C(COC(=O)Cn1nnc(-c2ccccc2)n1)Nc1ccccc1Br | -14.0% | . | . | . | -3.1 | . | 1.7% |
| c1ccc(-c2ccccc2OCCCCn2ccnc2)cc1 | -5.1% | ? | -5.5% | -3.1 | -16.6 | -12.2 | -2.1%[15.4 µM] |
| Cc1ccc2nc(-c3ccc(NC(=O)CNC4CC4)cc3)sc2c1 | -8.6% | -29.7% | 4.3% | -0.4 | 4.5 | 10.9 | 8.3% |
| C[C@H]1CN([C@@H](C)CO)C(=O)c2cc(C3=CCCC3)cnc2O[C@@H]1CN(C)C(=O)c1ccncc1 | . | . | -6.5% | . | 12.4 | . | -117.7%[inhibitor] |
| CC(=O)NN1C(=O)c2ccccc2NC1c1ccc(N(C)C)cc1 (stereo not given) | 6.4% | 4.0% | -5.4% | -13.7 | -13.3 | -22.2 | 9.3% |
